Ba CapD inh: blocks the Bacillus anthracis CapD enzyme; purified CapD enzyme, fluorescence intensity read-out; active compounds read low; some hits fall short of the stated cut; z-score (concentration not given with the values); actives 0.23% (n = 140,000);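 active = z-score under -4 in either of two replicates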;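 note: stock transfer was 100 nL into about 40 µL; score is relative to mean and spread of the plate; one replicate is shown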
AID504770: growth inhibitors of E. coli YBA685 in a screen for V. cholerae RctB (chromosome II replication) inhibitors | actives 0.27% (n = 130,000) | E. coli YBA685 rctB-dependent plasmid, OD600 growth, 3 h; active compounds read low | z-score (test concentration not listed) | AID 504770;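 active = z-score under -2 on both plates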;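 note: wells of about 30 µL received 100 nL stock; score is relative to mean and SD of the test wells; the first replicate is given; strong numbers were not always called active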
Starred values were filed as active, the others as inactive; . = not tested or not shown; & = joins results of further samples. A portion of the library; the hit share may differ from the screen's.

Structure,Ba CapD inh,AID504770
CCN1CCN(Cc2ccc(NC(=O)Nc3ccccc3)cc2)CC1,-0.27,0.4
O=C(/C=C/c1ccco1)Nc1ccc(N2CCCC2)cc1,-0.66,-0.7
O=C1CSC2=NC3=C(CCCC3=C3SCCCS3)C(c3ccccc3)N12 (configuration not stated),.,2.3
COCC(C)n1c(C)cc(C(=O)COC(=O)c2ccc(C#N)cc2)c1C (configuration not stated),.,-0.35
O=C(CCCC(=O)n1nnc2ccccc21)Oc1ccccc1F,0.73,0.75
Cc1cccc(C(=O)OCC(=O)N(C)C)c1O,.,0.95
Cc1cc(C(=O)CSc2nnc(C(F)(F)F)n2C)c(C)n1C1CC1,.,-0.15
CNC(=O)c1cccc(N2CCCC2=O)c1,-0.265,-0.85
O=c1ccc(-c2ccc(F)cc2)n[nH]1,1.31,-0.35
O=C(c1cc(-c2ccccc2O)on1)N1CCCC1,0.14,0.55
O=C(CSc1nc2ccccc2c(=O)[nH]1)Nc1ccccc1N1CCOCC1,0.3,0.25
CC(C)Oc1cccc(NC(=O)c2csnn2)c1,-0.62,-0.4
CCC(=O)Nc1ccc(-c2nc3cc(Cl)ccc3o2)cc1,30.7,-0.15
O=C(c1ccc(Cl)cc1)C1CCN(C(=O)OCCn2nc(-c3ccccc3)cc2-c2ccccc2)CC1,-0.305,.
Cc1cc(C(=O)COC(=O)/C=C/c2ccco2)c(C)n1C,.,-1.15
COc1ccc(NC(=O)c2sc3nc(C)nc(N4CCN(c5ccccn5)CC4)c3c2C)cc1OC,-1.59,.
O=C(Nc1cccc(C(F)(F)F)c1)C(Sc1cccc[n+]1[O-])c1ccccc1 (configuration not stated),-1.52,1.9
N#CC1(C#N)[C@H](c2ccccc2)[C@@H](C(=O)c2ccsc2)N2c3ccc(Cl)cc3C=C[C@@H]21,6.29,.
O=C1CN(C(=O)COc2ccccc2)CCN1,-0.31,-0.45
O=C(COc1ccccc1O)OCCO,.,1.5
COc1ccc(C(=O)N2CCc3c([nH]c4ccccc34)C2c2ccc(OC)cc2)cc1 (configuration not stated),-0.53,.
CN1CCN(CCc2nnc3n2CCCCC3)CC1,-0.835,-0.8
CCNC(=S)N(C)c1ccc(O)cc1,.,1.85
CCOC(=O)C1=C(C)N=c2s/c(=C3\C(=O)N(CC)c4ccccc43)c(=O)n2C1c1ccc(OC(=O)c2ccco2)cc1 (configuration not stated),-0.345,.
COC(=O)c1cc2sccc2n1CC(=O)N(C)c1ccccc1,-0.775,-0.75

Structure,Ba CapD inh,AID504770
COc1ccc(O)c(CNn2c(-c3cc(OC)c(OC)c(OC)c3)nc3ccccc3c2=O)c1,-0.37,.
O=C(c1cccs1)c1cn(CCOc2ccccc2)c2ccccc12,-0.465,1.55
CCn1cc(CO)c(C)n1,.,0.15
O=C(Oc1ccc(Br)cc1)C1CCC(N2C(=O)C3C4C=CC(C4)C3C2=O)CC1 (configuration not stated),0.69,0.6
CCN(Cc1ccncc1)C(=S)Nc1ccccc1,-0.135,1.25
COCc1cc(C)nc(SCC(=O)c2ccc(O)c(O)c2)c1C#N,17.2,-1
CCOC(=O)CSc1nnc(-c2ccncc2)n1C,-0.435,0.15
CCCCn1c(N)c(N(C)C(=S)NCCCN2CCOCC2)c(=O)[nH]c1=O,.,-0.75
O=C(O)/C=C/C(=O)N1CCN(c2ccccc2)CC1,-0.135,-0.85
O=C(Nc1ccc(Cl)cc1)c1sccc1Oc1ccc(F)cc1[N+](=O)[O-],-0.585,.
CCN(CC)CCNC(=O)COc1ccc(OC)cc1,0.405&68.3,0.4
CC(Sc1nnc(-c2cccs2)n1C1CC1)c1nc2ccccc2c(=O)[nH]1 (configuration not stated),.,0.4
COC(=O)Cn1cc(/C=C2\NC(=O)N(Cc3ccc(Cl)cc3)C2=O)c2ccccc21,-0.01,.
Cc1ccccc1N1CCN(C2=NC(=O)/C(=C\c3ccc(O)cc3)S2)CC1,-0.035,.
Cc1ccc2c(nc3s/c(=C\c4ccccc4OCc4ccc(Cl)cc4Cl)c(=O)n32)c1C,-0.25,.
CN(C)c1nc2ccccc2c(=O)s1,1.03,-0.9
CCOc1cccc(OCCCN(C)Cc2ccccc2)c1,0.61,0.95
Cc1c(C(=O)NCC2CCCO2)sc2ncnc(N3CCN(c4ccccc4)CC3)c12 (configuration not stated),-0.335,.
CCN1CCc2c(sc3c2C(=O)NC(c2ccc(COc4cccc(C(F)(F)F)c4)o2)N3)C1 (configuration not stated),-0.035,0.65
CC1CCN(CC(O)COc2c(F)cc(Br)cc2F)CC1 (configuration not stated),0.285,-0.1
COc1ccc(NC(=O)c2cc(S(=O)(=O)N3CCN(c4cccc(C)c4C)CC3)ccc2F)cc1,-0.3,.
O=S(=O)(c1ccccc1)N(c1cccnc1)S(=O)(=O)c1ccccc1,.,-0.85
COc1cc(/C=C2/SC(=Nc3ccccc3)N(N(C)C)C2=O)cc(Br)c1OC,-1.8,1.05
O=C(O)c1cn2ccccc2c1C(=O)O,85.5,-0.1
CC(=O)N1CCN(C(=O)c2ccc(S(=O)(=O)N3CCCc4ccccc43)cc2)CC1,.,0.8

Structure,Ba CapD inh,AID504770
O=C(NCCSCc1ccccc1)c1ccccc1,-0.12,1
Cc1ccc(-c2csc(Nc3ccccc3Cl)n2)cc1,-0.35,.
O=C1OC(c2ccc(Cl)c([N+](=O)[O-])c2)=N/C1=C\c1cc(Br)cs1,-0.125,.
CC(=O)Nc1ccc2c(COC(=O)Cc3coc4cc5c(cc34)CCC5)cc(=O)oc2c1,.,1.35
COc1cc(CCNC(=O)OCCCC2CCCCC2)cc(OC)c1,-1.36,.
CC1CCN(S(=O)(=O)c2ccc3[nH]cc(C(=O)NC4CCCCCC4)c(=O)c3c2)CC1,1.35,-0.35
CN1CCc2c(sc3c2C(=O)NC(/C=C/c2ccco2)N3)C1 (configuration not stated),0.235,0.8
Cc1c(C)n(Cc2ccc(Cl)cc2)c2ccc(C(=O)NCc3ccco3)cc12,1.71,0.25
COc1ccccc1N1C(=O)c2ccccc2NC12C(=O)N(Cc1c(Cl)cccc1Cl)c1ccccc12 (configuration not stated),0.315,.
Cc1ccc(CCNC(=O)c2cnc3ccc(S(=O)(=O)N4CCOCC4)cc3c2Cl)cc1,1.31,-0.35
CN(c1ccc(Cl)cc1)c1cc(=O)n(C)c2ccccc12,-1.38,0.5
CC(C)NC(=O)CN1Cc2ccccc2C1=O,-0.32,0.1
NC(=O)C1CCCN(C(=O)c2ccc3c(c2)NC(=O)CS3)C1 (configuration not stated),.,-0.55
O=C(O)c1cc(NC(=O)c2ccc(N3C(=O)C4C5C=CC(C5)C4C3=O)cc2)cc(C(=O)O)c1 (configuration not stated),-1.14,.
CC1(C)CC(=O)C(C=NCC2CCN(C(=O)c3ccccc3)CC2)=C(O)C1,-0.075,-1
Cc1ccn2cc(-c3cccc(NS(C)(=O)=O)c3)nc2c1,85.9,0.2
Cc1ccc(NC2CC(C)Nc3cc(C)ccc32)cc1 (configuration not stated),0.645,-0.6
COc1ccc(Br)cc1C(=O)Nc1ccc(-c2nnc(-c3ccco3)o2)cc1,6.05,0.5
O=C1/C(=C/c2cccs2)CCc2ccccc21,-1.56,.
CC(C)CN1C(=O)c2ccc(C(=O)Nc3ccc(F)cc3)cc2C1=O,0.885,-0.7
Cc1n[nH]c(C)c1NC(=O)CN(C)c1nc(-c2cccnc2)nc2ccccc12,.,1.25
C=CCNC(=O)c1cc(Cl)c(=O)n(Cc2c(Cl)cccc2Cl)c1,-0.06,.
COc1nccnc1NS(=O)(=O)c1ccc(NC(=S)NC(=O)c2cc3ccccc3oc2=O)cc1,-0.62,.
O=C(/C=C/c1ccc(Cl)cc1Cl)NCc1cccnc1,0.16,0.65
c1ccc(CCn2c(CSc3nc4ccccc4o3)nc3ccccc32)cc1,1.25,0.4

Structure,Ba CapD inh,AID504770
CC(C)(C)NC(=O)NCC(c1ccco1)N1CCc2ccccc2C1 (configuration not stated),.,-1
CCN(CC)S(=O)(=O)c1ccc(SC)cc1,-0.44,-0.75
Cc1ccc(NCc2cccn2-c2nnc(N3CCCCC3)s2)cc1,1.05,-0.5
OCCOc1ccc(OCCO)cc1,-0.01,-0.8
CN(C(=O)CC#N)c1ccc(F)cc1F,1.1,0.9
Cc1nc(SCC(=O)c2ccc(NS(C)(=O)=O)cc2)n(C2CCCCC2)c1C,.,-0.25
COc1ccc2c(OC(C)=O)coc2c1,-0.46,-0.9
COc1ccc(N=Cc2ccc(C)o2)cc1,0.845,0.5
Cc1ccc(CSc2nnc(-c3ccncc3)n2CC2CCCO2)cc1 (configuration not stated),.,-0.65
O=S(=O)(Nc1ccccc1)c1ccc2c(c1)CCO2,-0.365,1.25
COc1ccccc1N=c1scc(-c2ccco2)n1/N=C/c1ccco1,.,-0.25
CNC(=O)COC(=O)c1ccc(Cl)c(Cl)c1,-0.245,0
CCCNC(=O)c1cc(-c2ccc(OC)cc2)n(CCCOC)c1C,-0.07,-0.55
COc1cc2c(cc1OC)C(=NCCC(=O)O)NC(C)(C)C2,0.665,-0.05
CCN(c1ccc(C)c(C)c1)S(=O)(=O)c1ccc2c(c1)oc(=O)n2C,-0.115,0.5
CCOc1ccc(-n2c(=S)sc3c(=O)n(-c4ccccc4C)c(=S)[nH]c32)cc1,-1.04,.
CC1CN(C2CC(O)C(CO)O2)C(=O)NC1=O (configuration not stated),0.18,-0.15
Cc1[nH]c2ccccc2c1C1(O)C(=O)N(CCc2ccccc2)c2ccc(Br)cc21 (configuration not stated),0.27,0.25
CCOc1ccc2[nH]c(=O)c(CN(Cc3ccccc3OC)C(=O)N3CCCC3)cc2c1,.,-0.35
Cc1ccc(S(=O)(=O)N2CC3CCC2C3)cc1 (configuration not stated),-0.62,1
O=C1NC(=O)N(C2CCCCC2)C(=O)/C1=C/c1ccc(Br)cc1,-0.99,1.85
CN(CC(=O)O)S(=O)(=O)c1ccc(Cl)cc1,.,-0.75
COc1ccc(-n2c(O)cnc2Nc2nc(C)cc(C)n2)cc1OC,0.24,0.2
Clc1ccc(-c2cn3c(n2)CCC3)cc1Cl,0.2,-0.6
COc1ccc(-n2c(SCC(N)=O)nc3sc4c(c3c2=O)CCC4)cc1,0.985,.

smiles,Ba CapD inh,AID504770
CCC(c1nnc(SCC(=O)Nc2nc(-c3ccc(OC)cc3)cs2)o1)N(C)C (configuration not stated),.,0.05
O=C(CCN1CCC(c2cccs2)=N1)c1cccs1,-0.225,-0.4
Cc1ccc(O)c(C(=O)c2cnc3onc(-c4ccc(F)cc4)c3c2)c1,.,0.1
Cc1cc(C)c(C)c(S(=O)(=O)NCc2ccccc2F)c1C,-0.635,.
COc1ccc(N2C(=O)NC(=O)/C(=C\c3cc(Br)c(OC)c(OC)c3)C2=O)cc1,0.095,.
CC1CCCCC1NC(=O)CN(C)S(=O)(=O)c1ccc2c(c1)c(=O)n(C)c(=O)n2C (configuration not stated),0.4,0.15
Cc1cc(C(=O)NNC2=NCCCCC2)n[nH]1,.,-1.3
Cc1nc(C)c(CC(=O)O)c(=O)[nH]1,.,-1.25
N#Cc1c[nH]c2ccc(NC(=O)/C=C/c3ccc(OC(F)(F)F)cc3)cc12,9.32,0.7
O=[N+]([O-])c1c(Nc2ccccc2O)cc(N2CCOCC2)c2nonc12,-1.1,.

smiles,Ba CapD inh,AID504770
O=C1NC2(CCNCC2)N=C1c1ccc(Cl)cc1,.,-3
N#Cc1c(-c2ccccc2)cc(-c2ccccc2)nc1SCC(O)CN1CCOCC1 (configuration not stated),1.22,.
COc1ccc(C2CC(=O)C3=C(C2)NC(C)=C(C(=O)OC(C)C)C3c2ccccc2OC)cc1OC (configuration not stated),3.17,.
O=C1C2C(c3ccc(Cl)cc3)OC3(C(=O)c4ccccc4C3=O)C2C(=O)N1c1ccc(F)c([N+](=O)[O-])c1 (configuration not stated),0.55,.
O=S(=O)(NCCc1c[nH]c2ccccc12)c1ccccc1,.,0.85
S=c1nc(-c2cccs2)[nH]n1CN1CCOCC1,.,-0.55
COc1ccc(/C=c2/sc3nc4cc(Br)cnc4n3c2=O)c(OC)c1,1.17,.
COC(=O)c1nc(C(=O)OC)c(C(=O)OC)nc1C(=O)OC,.,-0.45
Cn1c(=O)c2c(nc(CN3CCN(c4ccc(F)cc4)CC3)n2CCN2CCOCC2)n(C)c1=O,.,1.65
CC(C)(C)c1ccc(NC(=O)/C=C/c2ccc(S(C)(=O)=O)cc2)cc1,-1.35,.
Cc1nn(-c2ccccc2)c(C)c1CN(C)C(=O)CN1C(=O)COc2ccccc21,.,0.1
CCN(C(=O)CCc1nc(-c2ccccc2F)no1)c1cc(Cl)ccc1OC,1.51,-0.65

Screens as filed in PubChem.
